RE007 growth inh = qHTS Assay for Inhibitors of the HIV-1 protein Vpr | AID 651644, 2012 | actives 0.21% (n = 360,000) | Potency, µM (series often up to 92.2 µM), for inactives: at the highest dose activity change, negative = less growth | S. pombe RE007 Vpr strain, BacTiter-Glo ATP luminescence, 24 h; control for the full effect not named in the record; active = well fitted falling curve with a large enough effect; inconclusive = small, poorly fitted or top-dose-only effect; inactive = no such curve, though single readings can be large or run the other way;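 note: % is set by controls: 0 for no effect and ±100 for the full control effect; nearly all actives have a fitted effect of over 50% in size; the assay follows cell death caused by Vpr and the record does not say whether a fall means rescue or toxicity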
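Fission yeast RE007 carrying one integrated HIV-1 vpr copy, seeded at OD 0.01 in PMG+AL medium with 23 nL pinned compound. Grown 24 h at 30 degrees; viability read by BacTiter-Glo luminescence after 5 min.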
StopGo reporter = High Throughput Screening for Foot and Mouth Disease Virus Antivirals | AID 1159524, 2015 | actives 1.2% (n = 410,000) | human cells with a luciferase reporter of 2A StopGo recoding; control for the full effect not named in the record | Potency, µM (doses to about 57.9 µM), inactives show at the highest dose signal change, negative = less light; active = well fitted falling curve with a large enough effect; inconclusive = small, poorly fitted or top-dose-only effect; inactive = no such curve, though single readings can be large or run the other way; tested in HEK293T cells; note: % is set by controls: 0 for no effect and ±100 for the full control effect; nearly all actives have a fitted effect of over 45% in size; luciferase light after 4 h
Cruzain noTriton = qHTS Assay for Promiscuous and Specific Inhibitors of Cruzain (without detergent). purified cruzain, Z-FR-AMC fluorescence, no detergent. Potency, µM, for the others: max response, negative = inhibition, most hits filed as inhibitors. actives 2.3% (n = 200,000); active = well fitted curve in the direction sought with a large enough effect; inconclusive = small, poorly fitted or top-dose-only effect, or another doubt; inactive = no such curve, though single readings can be large; an effect the other way counts as inactive or inconclusive;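 note: plate controls were enzyme without inhibitor for no effect and buffer without enzyme for full effect; nearly all actives have a fitted effect of over 40% in size; top concentration of the series not given in the record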
Target sequence (P25779 123-467 limits assumed): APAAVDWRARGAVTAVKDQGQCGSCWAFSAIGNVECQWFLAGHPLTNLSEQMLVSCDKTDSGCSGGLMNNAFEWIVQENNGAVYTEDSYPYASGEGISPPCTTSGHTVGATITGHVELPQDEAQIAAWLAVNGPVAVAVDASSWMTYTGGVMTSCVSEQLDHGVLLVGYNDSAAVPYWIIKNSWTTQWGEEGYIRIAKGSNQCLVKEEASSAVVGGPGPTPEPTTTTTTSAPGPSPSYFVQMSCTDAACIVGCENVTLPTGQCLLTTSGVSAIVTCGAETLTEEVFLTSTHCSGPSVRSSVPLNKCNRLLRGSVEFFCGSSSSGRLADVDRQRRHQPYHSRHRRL
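Purified cruzain at 1.5 nM, pre-incubated 15 min with compound at room temperature in 100 mM sodium acetate pH 5.5, 5 mM DTT, 0.00005% Triton X-100. Reaction started with 2 uM Z-FR-AMC; AMC fluorescence increase over 60 s gives rate.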
Cruzain inh Det = qHTS Assay for Promiscuous and Specific Inhibitors of Cruzain (with detergent); purified cruzain, Z-FR-AMC fluorescence, 0.01% Triton; Potency, µM, without a hit: max response, negative = inhibition, most hits filed as inhibitors; actives 0.43% (n = 200,000); active = well fitted curve in the direction sought with a large enough effect; inconclusive = small, poorly fitted or top-dose-only effect, or another doubt; inactive = no such curve, though single readings can be large; an effect the other way counts as inactive or inconclusive;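 note: plate controls were neutral wells for no effect and buffer without enzyme for full effect; nearly all actives have a fitted effect of over 40% in size; top concentration of the series not given in the record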
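Cruzain (1.5 nM) preincubated 15 min at RT with compound in 100 mM sodium acetate pH 5.5, 5 mM DTT, 0.01% Triton X-100. Reaction started with 2 uM Z-FR-AMC; AMC fluorescence (ex 360/em 450 nm) change over 60 s gave rate.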
LASV entry inh = qHTS for Inhibitors of binding or entry into cells for Lassa Virus; Lassa virus pseudotype entry inhibition, cell reporter; control for the full effect not named in the record; Potency, µM (series often up to 37.9 µM), inactives show top-dose activity change, negative = inhibition, actives largely listed as inhibitors; actives 1.2% (n = 300,000); active means well fitted inhibition curve with a large enough effect; inconclusive means small, poorly fitted or top-dose-only effect, or effect the other way; inactive means flat fitted curve, though single readings scatter; tested in HEK293 cells; note: % is set by controls: 0 for no effect and ±100 for the full control effect; nearly all actives have a fitted effect of over 50% in size; luciferase read-out
SARS PLpro yeast = qHTS of Yeast-based Assay for SARS-CoV PLP. S. cerevisiae expressing SARS-CoV PLpro, growth rescue; control for the full effect not named in the record. Potency, µM (doses to about 32.9 µM), for inactives: top-dose activity, positive = growth rescue. actives 0.19% (n = 330,000); note: 0% is about no effect; nearly all actives have a fitted effect of over 55% in size; growth read by luminescence after 48 h
MARV entry inh = qHTS for inhibitors of binding or entry into cells for Marburg Virus; Marburg virus pseudotyped entry inhibition, cell reporter; control for the full effect not named in the record; about a third of the inactives were read at about 46 µM; Potency, µM (doses to about 37.8 µM), for inactives: at the highest dose activity change, negative = inhibition, most hits filed as inhibitors; actives 1.8% (n = 300,000); AID 540276, 2011; active = well fitted inhibition curve with a large enough effect; inconclusive = small, poorly fitted or top-dose-only effect, or effect the other way; inactive = flat fitted curve, though single readings scatter; tested in HEK293 cells; about a fifth of its hits are not listed in these tables; note: % is set by controls: 0 for no effect and ±100 for the full control effect; luciferase read-out
NS1 function inh = qHTS Assay for Inhibitors of Influenza NS1 Protein Function. S. cerevisiae slowed by influenza A NS1, growth recovery by OD600. Potency, µM (series often up to 46.1 µM), for the others: at the highest dose activity, positive = more growth. actives 0.4% (n = 270,000). AID 2326, 2010; note: actives are rising curves; nearly all actives have a fitted effect of over 50% in size
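Recovery from NS1-induced slow growth read by OD600 in budding yeast switched to galactose assay medium (pH 6.0, -URA) at 1:100 dilution. Compound 23 nl per well; the matching strain lacking NS1 serves as control.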
Numbers without * were called inactive; ? = inconclusive; / = not tested or not shown; & = joins results of further samples; [ ] = remark or other dose. Unless noted, calls come from the whole dose curve; as a rule, active means well fitted rising curve with a large enough effect; inconclusive means small, poorly fitted or top-dose-only effect; inactive means no such curve, though single readings can be large or run the other way. Potency is the fitted concentration of half-maximal effect.

Order of results: RE007 growth inh | StopGo reporter | Cruzain noTriton | Cruzain inh Det | LASV entry inh | SARS PLpro yeast | MARV entry inh | NS1 function inh
> O=C(NC1CCN(S(=O)(=O)c2ccccc2F)CC1)c1cccnc1
  0% | -7% | / | / | -8%[46.1 µM] | -2% | -7%[46.1 µM] | -12%
> Cc1ccc(OCCC(=O)Nc2ccc(F)c(Cl)c2)cc1
  5% | 8% | -8% | -9.4% | 1% | 27% | 13% | 0%
> O=C(Nc1cccc(Cl)c1)ON=C1c2ccccc2-c2ccccc21
  -22% | / | -3% | -15% | 24% | -32% | 24% | -112%
> Cc1cccc(C)c1NC(=O)C[N+](C)(C)CC(O)COc1cccc2ccccc12 (stereo not drawn)
  21% | -12% | / | / | -16% | -1% | 6% | 1%
> CC(C)c1ccc(NC(=O)C(c2ccccc2)N2CCOCC2)cc1 (stereo not drawn)
  6% | -3% | -6% | -4.0% | / | 1% | / | -48%
> COc1ccccc1-c1nnc(NC(=O)C2=COCCO2)o1
  -2% | 20% | -2% | -0.6% | 9% | -1% | ? | 5%
> COc1ccc(Nc2nnc(SCC(=O)N3CC(=O)Nc4ccccc43)s2)cc1
  -8% | 15% | / | / | -6% | 0% | -27%[46.1 µM] | -13%
> Cc1ccc(CNC(=O)C(CC(C)C)OC(=O)c2ccco2)cc1 (stereo not drawn)
  44% | 9% | / | / | ? | -1% | ? | -2%
> Cc1cc(C2=NNC(=NC3CC3)SC2)c(C)n1-c1ccccc1F
  0% | 0.01µM* | ? | -7.2% | 0.13µM* | -25% | 0.13µM* | ?
> CC(Oc1cccc(Cl)c1)C(=O)Nc1cc(S(=O)(=O)N2CCOCC2)ccc1N1CCCCC1 (stereo not drawn)
  7% | ? | / | / | ? | 5% | ? | /
> O=P(c1ccccc1)(c1ccccc1)c1nc(-c2ccc(Cl)cc2)oc1N1CCOCC1
  22% | -24% | / | / | -29% | 3% | ? | 7%
> Oc1ccccc1-c1cc(-c2ccco2)[nH]n1
  -21% | 61%[activator] | 1% | -5.9% | ? | -37% | -13% | -9%
> COc1cc(-c2cc(=O)c3ccccc3o2)ccc1O
  -14% | 65%[activator] | -2% | -5.4% | / | -8% | / | -31%
> O=C(CSc1nnc(-c2ccncc2)o1)Nc1ccccc1Cl
  13% | 7% | -10% | 3.1% | 26% | 3% | 6%[46.1 µM] | -7%
> CC(C)(CC(=O)OCC(=O)Nc1ccccc1F)CC1=NS(=O)(=O)c2ccccc2N1
  -1% | -16%&-3% | 6% | 2.4% | -28%&-18%[46.1 µM] | -2% | ? | -7%
> CC(NC(=O)c1cc(-c2ccncc2)nc2ccc(Br)cc12)C1CCCO1 (stereo not drawn)
  -14% | -11% | / | / | -12% | 3% | -9% | -20%
> Cc1cc2ccccn2c1C(=O)c1ccccc1Br
  -24% | -13% | / | / | ? | -1% | ? | -42%
> CCCCSc1cc(C)nc2ncnn12
  2% | 0% | -2% | 7.1% | 3% | -1% | 0%&9% | -89%
> C=C(C)Cn1c(CCCNC(=O)C(C)(C)C)nc2ccccc21
  -10% | -16% | -3% | 4.3% | -17% | 5% | -17% | -5%
> O=C1N(Cc2cccc(Cl)c2)C[C@@H]2C[C@@H](c3cccn3-c3ccccn3)N3CCC[C@@]123
  -12% | -29% | / | / | ? | -1% | ? | 5%
> CN(Cc1nc2ccc(F)cc2[nH]1)Cc1nc(CC2CC2)no1
  5% | -15% | / | / | / | 0% | / | 0%
> COC1CCN(Cc2c(C(=O)N3CCN(C4CCCCC4)CC3)nc3ccccn23)CC1
  -9% | -9% | / | / | 3%[46.1 µM] | 0% | -8%[46.1 µM] | 8%
> CCOc1ccccc1NC(=O)Cn1nnc2sc(-c3ccccc3)cc2c1=O
  / | -8% | -10% | -6.7% | 20%[46.1 µM] | / | -8%[46.1 µM] | /
> OC(COCc1ccccc1)CN1CCN(c2ccccc2)CC1 (stereo not drawn)
  -4% | 8% | -2% | -2.1% | 0% | 0% | 8%[46.1 µM] | -3%
> CCOC(=O)N1CCN(S(=O)(=O)N(C)C)CC1
  6% | -1% | 12% | -3.3% | 0% | 2% | ? | 3%
> CCc1ccc(C(C)NC(=O)c2ccc(F)cc2)cc1 (stereo not drawn)
  13% | -17% | -4% | 6.2% | -11% | -3% | -13% | -4%
> CCc1ccc(-c2cc(C)no2)cc1S(=O)(=O)NCCN1CCC(C)CC1
  -7% | 23% | / | / | -30%[46.1 µM] | 11% | ? | -7%
> CSC1=NCCN1C(=O)c1ccc(C)cc1
  12% | 26% | / | / | 28% | -1% | -5% | 1%
> COc1cccc(CN2CCN(Cc3cc4ccccc4[nH]3)CC2CCO)c1 (stereo not drawn)
  -9% | -19% | / | / | / | 4% | / | -1%
> CCOC(=O)NN1C(=O)c2ccccc2NC1c1ccc(N(C)C)cc1 (stereo not drawn)
  51% | 34%[activator] | -6% | 3.5% | ? | -12% | 16% | -32%
> Cc1ccc(Nc2cc(C)c(C#N)c3nc4ccccc4n23)cc1Cl
  / | 0% | -8% | 0.5% | ? | / | 7%[46.1 µM] | /
> COc1cc(C(=O)c2cocc2C(=O)c2ccc3c(c2)OCO3)cc(OC)c1OC
  -10% | -18% | / | / | 11% | -1% | ? | 3%
> CC(C)c1nnc(NC(=O)COc2ccc3ccccc3c2)s1
  1% | 14% | / | / | 0% | 0% | 3% | 7%
> Cc1cc(Oc2cnn(C(C)(C)C)c(=O)c2Cl)cc(C(C)C)c1
  0%[3.69 µM] | -29% | -4% | -9.2% | -18% | -67% | -29% | ?
> O=C1[C@H]2[C@@H](C(=O)N1c1cc(Cl)cc(Cl)c1)[C@]1(C(=O)Nc3ccccc31)N1CCC[C@@H]21
  -12% | -19% | ? | -11% | 2% | 8% | -6% | 0%
> CC(=O)N1N=C(c2ccc(Br)cc2)OC1(C)CC(=O)Nc1ccccc1 (stereo not drawn)
  2% | -23% | 16% | -12% | ? | -4% | ? | -4%
> O=S(=O)(c1ccc(F)cc1)N1CCCN(c2nccc(C(F)(F)F)n2)CC1
  -3% | ? | / | / | / | -2% | / | -5%
> Cn1cccc1/C=N/n1c(-c2ccc(C(C)(C)C)cc2)n[nH]c1=S
  13% | -20% | -2% | -13% | 10µM* | -9% | ? | -55%
> Oc1ccc(-c2nccs2)cc1
  19% | 32%[activator] | / | / | 8%[46.1 µM] | / | 8%[46.1 µM] | /
> COc1cccc(CC2(CO)CCCN(Cc3cn[nH]c3-c3ccc(F)cc3)C2)c1 (stereo not drawn)
  ? | -10% | / | / | 13% | 0% | ? | 2%
> N#Cc1c(N2CCOCC2)nc(-c2ccco2)c2c1CCCC2
  -12% | 0% | 10µM* | 13µM* | 9% | -4% | ? | 1%
> O=C(C1CCN(c2nnc(-n3cccc3)s2)CC1)N1CCN(c2cccc(C(F)(F)F)c2)CC1
  2% | ? | 15% | 4.7% | ? | -2% | ? | 5%
> CC(=O)c1cccc(NC(=O)CCS(=O)(=O)c2cc(Br)cc3c2N(C(=O)C2CC2)CC3)c1
  / | -22% | 5% | 1.2% | ? | / | 5%[46.1 µM] | /
> COc1ccc(OC)c(-c2cc(C(=O)NCc3cccs3)no2)c1
  14% | -11% | -19% | -16% | 19%[14.3 µM] | 14% | 1% | -42%
> O=C(CSc1ccc2ccccc2n1)N/N=C/c1ccccc1O
  0% | 11% | / | / | / | -6% | / | -5%
> COc1ccc(-n2ncc(C(=O)NCc3ccccc3)c2C2CCN(C(=O)OC(C)(C)C)CC2)cc1
  / | 5% | ? | -7.9% | ? | / | / | /
> CC1=C(C(=O)OCC2CCCCC2)C(c2c(F)cccc2Cl)CC(=O)N1 (stereo not drawn)
  / | ? | 5% | -3.2% | 9%[46.1 µM] | / | 16%[46.1 µM] | /
> COc1ccccc1CN(Cc1cc2cc(C)ccc2[nH]c1=O)Cc1nnnn1CC1CCCO1 (stereo not drawn)
  -23% | / | ? | -6.7% | -23% | -2% | ? | -65%
> COc1ccc(OC)c(CNS(=O)(=O)c2ccc3[nH]c4c(c3c2)CCCCC4)c1
  / | -27% | -9% | -13% | -15%[46.1 µM] | / | / | /
> O=C(NCCN1CCOCC1)c1cc(Br)ccc1Cl
  14% | -8% | / | / | 4%[46.1 µM] | 3% | -8%[46.1 µM] | 3%
> Cc1nc(-c2ccc(S(=O)(=O)N3CCOCC3)cc2)cs1
  8% | -6% | / | / | ? | -8% | 5%[46.1 µM] | 7%
> COc1cccc(OCCCCn2c(-c3ccc(Cl)cc3)nc3ccccc3c2=O)c1
  / | 0% | -11% | 8.4% | 25%[46.1 µM] | / | 27%[46.1 µM] | /
> O=C(Cc1cc(=O)oc2cc(O)ccc12)NCC1CCC(C(=O)O)CC1 (stereo not drawn)
  -4% | 3% | -87% | 25µM* | 0% | 3% | -5% | 0%
> CN1CCc2c(sc(NC(=O)c3ccc([N+](=O)[O-])o3)c2C(N)=O)C1
  -29% | -6% | / | / | ? | 6% | ? | 3%
> COC(=O)c1ccc(NC(=O)C2CCN(S(C)(=O)=O)CC2)cc1
  -5% | -10% | 6% | 1.0% | -10% | -3% | 23%[46.1 µM] | 3%
> Cc1cc(OC(C)C(=O)NCC(O)c2ccccc2)c2c(C)c(C)c(=O)oc2c1 (stereo not drawn)
  -7% | 5% | / | / | / | 4% | / | -3%
> N#Cc1ccccc1NC(=O)CC1CCCCC1
  1% | 38%[activator] | 5% | -0.7% | ? | -8% | ? | -1%
> O=C(CCc1nc2cccnc2n1Cc1ccccc1)NCc1cccc(Cl)c1
  / | -9% | 0% | -4.9% | -6%[46.1 µM] | / | ? | /
> Cc1ccccc1Nc1nc(N)nc(COC(=O)c2cccc(S(=O)(=O)NCc3ccccc3)c2)n1
  14% | 0% | -12% | -1.3% | ? | -15% | ? | 7%

High-throughput results (PubChem)
